Compound activity from PubChem.
Yeast UUG start – alters start codon recognition fidelity in yeast. S. cerevisiae UUG-firefly luciferase reporter, luminescence/redox ratio. AID 602363. activity score, % at 18.7 µM. hit rate 0.13% among 350,000;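 active means replicate mean at a twofold rise or more, about +100% in these data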;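 further: firefly luciferase made from a UUG start codon reports start codon fidelity; reporter light over untreated wells divided by growth signal over untreated wells; some hits fall short of that in this replicate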
Env fusion inh – blocks HIV Env-driven cell-cell fusion; inhibition, % at 12.3 µM; AID 651610; hit rate 1.1% among 360,000; HeLa-JRFL Env/CEM21 cell fusion, luciferase;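 active means mean replicate inhibition score of at least 50 and every replicate individually at or above 50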;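 further: 0% = plate neutral controls and 100% = maraviroc near 300 nM; one replicate is shown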
* hit, by the source's call; [ ] = remark or other dose.

SMILES	Yeast UUG start	Env fusion inh
COc1ccc(CN(C)C[C@H]2OCCCC[C@@H](C)Oc3ccc(NC(=O)NC4CCCCC4)cc3C(=O)N([C@@H](C)CO)C[C@H]2C)cc1	11	-4[16.7 µM]
O=C(C[C@H]1CC[C@H](NC(=O)Cc2ccccn2)[C@@H](CO)O1)NCCc1ccccc1	-8	1[16.7 µM]
COc1ccc(CCNC(=O)[C@@]2(Sc3ccc(C)cc3)CC(=O)N(C(C)C)[C@@H]2c2ccc(CO)cc2I)cc1	-6	-21[16.7 µM]
COc1ccc(NC(=O)N(C)C[C@@H]2OCCCC[C@H](C)Oc3ccc(NC(=O)c4ccncc4)cc3C(=O)N([C@@H](C)CO)C[C@H]2C)cc1	10	10[16.7 µM]
COc1ccc(-c2cnc3c(c2)C(=O)N([C@H](C)CO)C[C@H](C)[C@H](CN(C)Cc2cccc(C(F)(F)F)c2)O3)cc1	4	-39[16.7 µM]
CC(C)NC(=O)Nc1ccc2c(c1)C(=O)N([C@H](C)CO)C[C@H](C)[C@@H](CN(C)S(=O)(=O)c1ccc(Cl)cc1)OCCCC[C@H](C)O2	0	-46[16.7 µM]
C[C@H](CO)N1C[C@H](C)[C@H](CN(C)S(=O)(=O)c2cn(C)cn2)OCCCC[C@H](C)Oc2ccc(NC(=O)c3ccncc3)cc2C1=O	-17	8[16.7 µM]
Cc1ccccc1-c1cnc2c(c1)C(=O)N([C@H](C)CO)C[C@@H](C)[C@@H](CN(C)Cc1cccnc1)O2	-13	-1[16.7 µM]
NCC[C@@H]1CC[C@H](NS(=O)(=O)c2ccc(Cl)cc2)[C@H](CO)O1	6	-15[16.7 µM]
C[C@@H]1CN([C@@H](C)CO)C(=O)c2cc(NC(=O)CCC(F)(F)F)ccc2O[C@@H](C)CCCCO[C@@H]1CN(C)Cc1ccc2c(c1)OCO2	2	-35[16.7 µM]
C[C@H](CO)N1C[C@H](C)[C@H](CN(C)Cc2cccnc2)Oc2cc(C#C[C@@H](C)O)ccc2S1(=O)=O	4	7[16.7 µM]
O=C(N[C@H]1CC[C@H](CCn2cc(-c3ccccc3)nn2)O[C@H]1CO)c1ccccc1F	6	20[16.7 µM]
NC(=O)[C@]1(Cc2ccccc2)N=C(c2ccc(OCCCO)cc2)O[C@@H]1c1ccccc1	39	-21[16.7 µM]
COC(=O)C[C@H]1CC[C@@H]2[C@@H](COc3ccc(NC(=O)c4cccc(F)c4)cc3C(=O)N2C)O1	1	-6[16.7 µM]
C[C@@H]1CN([C@H](C)CO)C(=O)Cc2cc(NC(=O)CCC(F)(F)F)ccc2O[C@@H]1CN(C)CC1CC1	6	-7[16.7 µM]
CNC[C@H]1Oc2ccc(NC(=O)CCN3CCOCC3)cc2CC(=O)N([C@H](C)CO)C[C@@H]1C	2	7[16.7 µM]
Cc1noc(C)c1NC(=O)Nc1ccc2c(c1)C(=O)N([C@@H](C)CO)C[C@H](C)[C@H](CN(C)CC1CCCCC1)OCCCC[C@H](C)O2	13	8[16.7 µM]
C[C@@H]1CN([C@@H](C)CO)S(=O)(=O)c2ccc(Br)cc2O[C@@H]1CN(C)S(=O)(=O)c1ccc(F)cc1	-2	-45
C/C=C/c1ccc2c(c1)O[C@H](CN(C)C(=O)CC)[C@@H](C)CN([C@H](C)CO)S2(=O)=O	4	-17[16.7 µM]
COc1ccc(S(=O)(=O)N(C)C[C@H]2Oc3ccc(NC(=O)c4ccncc4)cc3CC(=O)N([C@@H](C)CO)C[C@@H]2C)cc1	-5	-6[16.7 µM]
Cc1ccc(S(=O)(=O)N(C)C[C@H]2OCCCC[C@H](C)Oc3ccc(NC(=O)c4ccccc4)cc3C(=O)N([C@H](C)CO)C[C@H]2C)cc1	-15	-46[16.7 µM]
CC(=O)N(C)C[C@H]1Oc2cc(-c3cncnc3)ccc2S(=O)(=O)N([C@H](C)CO)C[C@@H]1C	-6	-34[16.7 µM]
C[C@@H]1CN([C@@H](C)CO)C(=O)c2cc(NC(=O)Nc3ccc4c(c3)OCO4)ccc2O[C@@H]1CN(C)Cc1ccc(C(=O)Nc2ccccc2N)cc1	5	20[16.7 µM]
C[C@H]1CN([C@@H](C)CO)C(=O)Cc2cc(NS(=O)(=O)c3cn(C)cn3)ccc2O[C@H]1CN(C)CC1CC1	-9	-11[16.7 µM]
CC(=O)N(C)C[C@H]1Oc2cc(C#CC(C)(C)O)ccc2S(=O)(=O)N([C@H](C)CO)C[C@@H]1C	4	7[16.7 µM]
COc1ccc(NC(=O)Nc2ccc3c(c2)C(=O)N([C@@H](C)CO)C[C@@H](C)[C@@H](CN(C)S(=O)(=O)c2ccc(Cl)cc2)OCCCC[C@@H](C)O3)cc1	-8	-17[16.7 µM]
C[C@@H]1CCCCO[C@H](CN(C)S(=O)(=O)c2cn(C)cn2)[C@@H](C)CN([C@H](C)CO)C(=O)c2cc(NS(=O)(=O)c3cn(C)cn3)ccc2O1	27	5[16.7 µM]
C[C@@H]1CN([C@@H](C)CO)C(=O)c2cccc(NC(=O)Nc3ccc4c(c3)OCO4)c2O[C@@H]1CN(C)C(=O)Nc1ccc(C(F)(F)F)cc1	-4	-28[16.7 µM]
CCCNC(=O)N(C)C[C@@H]1Oc2ncc(C#Cc3ccccc3F)cc2C(=O)N([C@H](C)CO)C[C@@H]1C	-4	5[16.7 µM]
COc1ccc(NC(=O)N(C)C[C@H]2Oc3ccc(NC(=O)NC4CCCCC4)cc3CC(=O)N([C@H](C)CO)C[C@@H]2C)cc1	57	-5[16.7 µM]
Cc1noc(C)c1S(=O)(=O)Nc1ccc2c(c1)CC(=O)N([C@@H](C)CO)C[C@@H](C)[C@@H](CN(C)S(=O)(=O)c1ccc(Cl)cc1)O2	22	2[16.7 µM]
CCCNC(=O)N1[C@H](C#N)[C@H](c2ccccc2)[C@H]1CO	7	0[16.7 µM]
COc1ccc(S(=O)(=O)N(C)C[C@H]2Oc3c(NC(=O)C4CC4)cccc3C(=O)N([C@@H](C)CO)C[C@H]2C)cc1	-1	-41[16.7 µM]
CCCC#Cc1cnc2c(c1)C(=O)N([C@H](C)CO)C[C@H](C)[C@@H](CN(C)S(=O)(=O)c1ccccc1)O2	5	5[16.7 µM]
C[C@@H]1CCCCO[C@H](CN(C)C(=O)c2ccccc2)[C@@H](C)CN([C@H](C)CO)C(=O)c2cc(NS(C)(=O)=O)ccc2O1	-3	-4[16.7 µM]
C/C=C/c1cnc2c(c1)C(=O)N([C@H](C)CO)C[C@@H](C)[C@@H](CN(C)C(=O)C1CCCCC1)O2	2	-4[16.7 µM]

Some values from the list.
COc1ccc(CCNC(=O)[C@@]2(Sc3ccc(C)cc3)CC(=O)N(C(C)C)[C@@H]2c2ccc(CO)cc2I)cc1 – Yeast UUG start: -6
C[C@@H]1CN([C@@H](C)CO)C(=O)c2cccc(NC(=O)Nc3ccc4c(c3)OCO4)c2O[C@@H]1CN(C)C(=O)Nc1ccc(C(F)(F)F)cc1 – Env fusion inh: -28[16.7 µM]
O=C(N[C@H]1CC[C@H](CCn2cc(-c3ccccc3)nn2)O[C@H]1CO)c1ccccc1F – Env fusion inh: 20[16.7 µM]
CC(C)NC(=O)Nc1ccc2c(c1)C(=O)N([C@H](C)CO)C[C@H](C)[C@@H](CN(C)S(=O)(=O)c1ccc(Cl)cc1)OCCCC[C@H](C)O2 – Env fusion inh: -46[16.7 µM]
C[C@H]1CN([C@@H](C)CO)C(=O)Cc2cc(NS(=O)(=O)c3cn(C)cn3)ccc2O[C@H]1CN(C)CC1CC1 – Yeast UUG start: -9
C[C@@H]1CN([C@@H](C)CO)S(=O)(=O)c2ccc(Br)cc2O[C@@H]1CN(C)S(=O)(=O)c1ccc(F)cc1 – Yeast UUG start: -2

The listing continues.
SMILES	Yeast UUG start	Env fusion inh
Cc1noc(C)c1NC(=O)N(C)C[C@@H]1Oc2ccc(NC(=O)Cn3cnnn3)cc2CC(=O)N([C@H](C)CO)C[C@H]1C	-8	6[16.7 µM]
CCCC#Cc1cnc2c(c1)C(=O)N([C@H](C)CO)C[C@@H](C)[C@@H](CN(C)C(=O)Cc1ccccc1)O2	7	-4[16.7 µM]
O=C(NCC[C@H]1CC[C@@H](NS(=O)(=O)c2cccc(F)c2)[C@H](CO)O1)C1CCOCC1	-12	8[16.7 µM]
Cc1ccc(S(=O)(=O)N[C@@H]2CC[C@@H](CCNS(=O)(=O)Cc3ccccc3)O[C@H]2CO)cc1	-4	-32[16.7 µM]
C[C@@H]1CN([C@@H](C)CO)C(=O)c2cc(NC(=O)Nc3ccc4c(c3)OCO4)ccc2O[C@@H]1CN(C)Cc1ccc2c(c1)OCO2	3	7[16.7 µM]
C[C@@H]1CN([C@H](C)CO)C(=O)c2cc(NS(=O)(=O)c3ccc(F)cc3)ccc2O[C@@H](C)CCCCO[C@@H]1CN(C)S(=O)(=O)c1cn(C)cn1	9	20[16.7 µM]
Cc1ccc(S(=O)(=O)Nc2ccc3c(c2)CC(=O)N([C@H](C)CO)C[C@@H](C)[C@H](CN(C)S(=O)(=O)c2ccc(F)cc2)O3)cc1	4	27[16.7 µM]
C[C@H]1CN([C@@H](C)CO)C(=O)c2cc(C#Cc3cccnc3)cnc2O[C@@H]1CN(C)C(=O)CN(C)C	-17	5[16.7 µM]
C[C@H](CO)N1C[C@H](C)[C@H](CN(C)S(=O)(=O)c2ccccc2)Oc2ncc(C#Cc3ccccc3F)cc2C1=O	7	14[16.7 µM]
C[C@@H]1CN([C@H](C)CO)C(=O)c2cc(NC(=O)c3ccccc3)ccc2O[C@@H](C)CCCCO[C@H]1CN(C)Cc1ccc(C(F)(F)F)cc1	16	69*[16.7 µM]
C[C@@H]1CCCCO[C@@H](CN(C)Cc2ccncc2)[C@@H](C)CN([C@@H](C)CO)C(=O)c2cc(NC(=O)Nc3cccc4ccccc34)ccc2O1	11	-16[16.7 µM]
Cc1cc(C(=O)Nc2ccc3c(c2)C(=O)N(C)[C@H]2CC[C@@H](CC(=O)NCC(F)(F)F)O[C@H]2CO3)no1	9	-5[16.7 µM]

The last two entries of the part before come first, to join the parts:
SMILES	Yeast UUG start	Env fusion inh
C[C@@H]1CCCCO[C@@H](CN(C)Cc2ccncc2)[C@@H](C)CN([C@@H](C)CO)C(=O)c2cc(NC(=O)Nc3cccc4ccccc34)ccc2O1	11	-16[16.7 µM]
Cc1cc(C(=O)Nc2ccc3c(c2)C(=O)N(C)[C@H]2CC[C@@H](CC(=O)NCC(F)(F)F)O[C@H]2CO3)no1	9	-5[16.7 µM]
C[C@@H]1CN([C@H](C)CO)C(=O)c2cccc(NC(=O)C3CCCCC3)c2O[C@@H]1CN(C)Cc1ccc(-c2ccccc2)cc1	-1	23[16.7 µM]
C[C@@H]1CN([C@H](C)CO)C(=O)c2cc(NC(=O)Nc3ccc4c(c3)OCO4)ccc2O[C@@H]1CN(C)C(=O)NC1CCCCC1	1	10[16.7 µM]
C[C@H]1CN([C@@H](C)CO)C(=O)c2cccc(NC(=O)c3ccc(-c4nccs4)cc3)c2O[C@@H]1CN(C)S(C)(=O)=O	-8	14[16.7 µM]
CC(C)C#Cc1cnc2c(c1)C(=O)N([C@H](C)CO)C[C@H](C)[C@@H](CN(C)C(=O)c1ccccc1F)O2	17	-19[16.7 µM]
C[C@@H]1CN([C@H](C)CO)C(=O)c2cc(-c3ccccc3F)cnc2O[C@@H]1CN(C)C(=O)CN(C)C	-15	-11[16.7 µM]
COc1ccc(S(=O)(=O)Nc2ccc3c(c2)C(=O)N([C@@H](C)CO)C[C@H](C)[C@H](CN(C)C(=O)Nc2ccc(C(F)(F)F)cc2)OCCCC[C@@H](C)O3)cc1	-29	28[16.7 µM]
C[C@H](O)C#Cc1cnc2c(c1)C(=O)N([C@H](C)CO)C[C@@H](C)[C@H](CN(C)Cc1cccc(F)c1)O2	-4	-4[16.7 µM]
C[C@@H]1CN([C@H](C)CO)C(=O)c2cc(NS(=O)(=O)c3ccc(Cl)cc3)ccc2O[C@@H](C)CCCCO[C@H]1CN(C)S(=O)(=O)c1ccc(F)cc1	1	-15[16.7 µM]
COc1ccccc1-c1cnc2c(c1)C(=O)N([C@@H](C)CO)C[C@@H](C)[C@@H](CN(C)C(=O)c1cccnc1)O2	-1	13[16.7 µM]
C[C@@H]1CN([C@H](C)CO)C(=O)c2cc(-c3ccccc3)cnc2O[C@H]1CN(C)C(=O)c1ccccn1	-4	18[16.7 µM]
CCCNC(=O)N(C)C[C@H]1Oc2cc(C#CCOC)ccc2S(=O)(=O)N([C@H](C)CO)C[C@@H]1C	19	-6[16.7 µM]
CCCC(=O)Nc1ccc2c(c1)C(=O)N(C)[C@H]1CC[C@H](CC(=O)NCc3ccccc3F)O[C@H]1CO2	13	-4[16.7 µM]
Cc1ccc(S(=O)(=O)N(C)C[C@@H]2OCCCC[C@H](C)Oc3ccc(NC(=O)Nc4ccc(F)cc4)cc3C(=O)N([C@H](C)CO)C[C@@H]2C)cc1	2	4[16.7 µM]
O=C(C[C@H]1CC[C@H](NC(=O)C2CCC2)[C@H](CO)O1)NCCCN1CCOCC1	-7	4[16.7 µM]
CCCC#Cc1cnc2c(c1)C(=O)N([C@@H](C)CO)C[C@@H](C)[C@H](CN(C)Cc1ccncc1)O2	-2	26[16.7 µM]
C[C@H](CO)N1C[C@H](C)[C@@H](CN(C)Cc2ccc(C(F)(F)F)cc2)Oc2ccc(NC(=O)C3CC3)cc2CC1=O	7	9[16.7 µM]
C[C@@H]1CCCCO[C@@H](CN(C)S(=O)(=O)c2ccc(Cl)cc2)[C@@H](C)CN([C@H](C)CO)C(=O)c2cc(NC(=O)Nc3ccccc3)ccc2O1	-20	22[16.7 µM]
O=C(CCN1CCCCC1)NCC[C@@H]1CC[C@@H](NC(=O)C2CC2)[C@H](CO)O1	-3	-20[16.7 µM]
Cc1noc(C)c1NC(=O)Nc1ccc2c(c1)C(=O)N([C@H](C)CO)C[C@H](C)[C@H](CN(C)S(C)(=O)=O)OCCCC[C@H](C)O2	-2	2[16.7 µM]
CNC[C@@H]1Oc2ccc(NS(=O)(=O)c3cn(C)cn3)cc2CC(=O)N([C@H](C)CO)C[C@H]1C	-3	14[16.7 µM]
O=S(=O)(N[C@H]1CC[C@H](CCn2cc(-c3cccc(F)c3)nn2)O[C@H]1CO)c1ccc(F)cc1	-17	4[16.7 µM]

Some of the compounds tested; rates above refer to the full screens.
